# Assay outcomes deposited in PubChem BioAssay by National Center for Advancing Translational Sciences (NCATS).
# VDR inh: inhibitors of human vitamin D receptor. Potency, µM, without a hit: max response, negative = inhibition, actives largely listed as inhibitors. VDR-SRC2-3 peptide fluorescence polarization, 2 h. hit rate 0.93% among 400,000. P11473; active = well fitted inhibition curve with a large enough effect; inconclusive = small, poorly fitted or top-dose-only effect, or another doubt; inactive = no such curve, though single readings can be large or run the other way; also: series mostly up to about 120 µM
# Target sequence (P11473 whole entry, looked up): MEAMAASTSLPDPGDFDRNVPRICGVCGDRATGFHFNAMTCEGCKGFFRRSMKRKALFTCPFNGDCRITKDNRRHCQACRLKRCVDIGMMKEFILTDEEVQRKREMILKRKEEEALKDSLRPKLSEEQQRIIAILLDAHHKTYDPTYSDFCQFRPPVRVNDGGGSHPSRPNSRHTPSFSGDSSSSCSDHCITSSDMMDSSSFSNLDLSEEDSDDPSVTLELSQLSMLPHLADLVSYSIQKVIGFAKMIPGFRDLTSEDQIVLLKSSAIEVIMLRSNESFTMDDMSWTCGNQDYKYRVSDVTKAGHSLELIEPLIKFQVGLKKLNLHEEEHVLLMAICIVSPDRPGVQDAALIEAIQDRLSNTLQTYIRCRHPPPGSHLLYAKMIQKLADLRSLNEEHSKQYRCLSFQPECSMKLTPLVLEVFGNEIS
#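 Measured by FP: displacement of SRC2-3 coactivator peptide from VDR by library compounds, following a two-hour ambient incubation.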
# The depositor's hits bear a star; ? = inconclusive. % is scaled to controls: 0 for no effect and ±100 for the full control effect; potency is read from the fitted curve at half-maximal effect. These rows are one share of the data. The share of hits here may be higher or lower than overall.
SMILES,VDR inh
CCc1nc2ccccc2n1Cc1ccc(OC)c(OC)c1,-11%
O=C(NCc1ccc(F)c(F)c1)C1CCC(=O)N(CC2CCCCC2)C1 (configuration not stated),6%
O=C(CSCc1ccc(F)cc1)N1CCN(c2ccc(F)cc2)CC1,-5%
CC(C)NC(=O)Nc1ccc2c(c1)C(=O)N([C@H](C)CO)C[C@H](C)[C@@H](CN(C)C(=O)Nc1ccccc1)O2,19%
Cc1cc(NC(=O)CSc2nc(C(C)C)nc3sc4c(c23)CCCC4)no1,-11%
O=C(NCC(=O)c1ccccc1)OCc1ccc([N+](=O)[O-])cc1,9%
COCCNc1nc(-c2ccccc2OC)nc2ccccc12,-3%
Cc1ccc(CNC(=O)c2ccc(Cl)c(S(N)(=O)=O)c2)n1C,2%
CCOC(=O)NC(=O)CSc1ccccn1,14%
CCCCN(C(=O)c1ccc(S(=O)(=O)N(C)C)cc1)c1nc2ccccc2s1,-5%
O=C(NNc1ccccc1[N+](=O)[O-])Nc1ccccc1,?
O=C(/C=C/c1ccco1)OCc1nnc(-c2ccc(Cl)cc2)o1,-10%
CCC(CC)C(=O)Nc1cc([N+](=O)[O-])ccc1Cl,-7%
CS(=O)(=O)c1ccc2nc(NC(=O)c3cccc(NS(=O)(=O)c4ccc(F)c(F)c4)c3)sc2c1,-11%
COc1ccc(C(c2c(C)n(C)n(-c3ccccc3)c2=O)c2c(C)n(C)n(-c3ccccc3)c2=O)cc1,-1%
Cc1ccc2nc(NC(=O)C3CC(=O)N(Cc4ccco4)C3)sc2c1 (configuration not stated),1%
CCC(C)n1c(=N)c(C(=O)NC2CCCC2)cc2c(=O)n3ccccc3nc21 (configuration not stated),-6%
COc1cccc(NC(=O)N2CCN(c3cccc(C)c3C)CC2)c1,0%
Cc1ccccc1CN1C(=O)c2ccccc2Sc2ccc(C(=O)NC(C)c3ccccc3)cc21 (configuration not stated),-1%
Cc1ccc2c(c1)N(C(=O)C1CCN(S(=O)(=O)c3c(C)noc3/C=C/c3ccccc3F)CC1)CCO2,1%
C/C(CC(=O)NCCCN1CCOCC1)=N\NC(=O)COc1ccc(Cl)cc1,1%
O=C(CSc1nc2[nH]c(=O)[nH]c(=O)c2s1)Nc1cccc(F)c1,-12%
CCOC(=O)CSc1nc2ccc(NC(=O)CSc3nnnn3Cc3ccccc3)cc2s1,-1%
COc1ccc(C(=O)C=CNNC(=O)c2ccc(Cl)cc2)cc1,12%
C=CCn1c(SCC(=O)N2CCN(c3ccccc3)CC2)nc2c([nH]c3ccccc32)c1=O,-15%
# Continued.
SMILES,VDR inh
Cc1ccc(C(O)c2nccn2C)o1 (configuration not stated),14%
Cc1c(OC(C)C(=O)O)ccc2c(-c3ccccc3)cc(=O)oc12 (configuration not stated),7%
O=c1[nH]cc(NCc2ccccc2)c(=O)[nH]1,?
CC(Nc1nc(-c2ccncc2)nc2ccccc12)c1ccccc1 (configuration not stated),-9%
O=C1NC(=O)/C(=C\c2ccc(OCc3ccccc3)cc2)S1,6%
CC1(C)CC(=O)C2=C(C1)OC(N)=C(C#N)C2c1ccccc1OC(=O)N1CCOCC1 (configuration not stated),0%
Cc1ccc(C(=O)N2CCCC(CCC(=O)N3CCN(c4ccccn4)CC3)C2)cn1 (configuration not stated),-16%
O=C(O)CSCC(=O)Nc1cc(C(F)(F)F)ccc1Cl,1%
COC(=O)c1nn(-c2ccc(C)cc2)ccc1=O,2%
O=C(Nc1cc(S(=O)(=O)N2CCOCC2)ccc1Oc1ccc(F)cc1)C1=COCCO1,11%
COc1cc2sc(-c3ccccc3OC)c(-c3ccc(OCCN4CCOCC4)cc3)c2cc1OC,3%
CCOc1ccc(S(=O)(=O)N2CCCC(C(=O)NCC3CCCO3)C2)cc1Cl (configuration not stated),7%
Cc1c(NC=C(C#N)C#N)c(=O)n(-c2ccccc2)n1C,-6%
Cc1ccc(OCC(=O)Nc2ccccc2OCc2cc(=O)n3ccccc3n2)cc1C,8%
Cc1nn2c(-c3cccnc3)ccnc2c1-c1ccccc1,-3%
CC(C)C[C@@H](CC(=O)N[C@@H](CCC(=O)O)CC(=O)O)NC(=O)[C@@H]1CNCC[C@H]1NC(=O)C[C@@H](NC(=O)C[C@H](CO)NC(=O)[C@@H]1CNCC[C@H]1N)C(C)C,-3%
COc1ccc2cc(C(=O)N(C)CC(=O)Nc3ccccc3Br)ccc2c1,-4%
CCSc1nnc(CNC(=O)C23CC4CC(CC(C4)C2)C3)n1Cc1ccccc1,-18%
CCN1C(=O)C(Cc2nc3ccccc3c(=O)n2-c2ccccc2)c2ccccc21 (configuration not stated),-1%
O=C(c1ccco1)N1CCN(C(=O)C2CC(=O)N(c3ccc(Cl)cc3)C2)CC1 (configuration not stated),-5%
COc1ccc(CC(=O)NNC(=O)c2cccs2)cc1OC,11%
CC(NC(=O)c1ccc(Cn2cc([N+](=O)[O-])cn2)o1)c1ccccc1 (configuration not stated),14%
O=C(/C=C/c1cccs1)NC(=S)Nc1ccc(S(=O)(=O)Nc2ccccc2C(F)(F)F)cc1,-6%
Cc1ccc(NC(=O)Nc2ccc3c(c2)OCO3)c(OC(F)F)c1,-9%
Cc1ccccc1OCC(=O)NC(=S)Nc1ccc(Br)c(C)n1,-6%

# In the list so far, these contain a COOH group.
SMILES,VDR inh
Cc1c(OC(C)C(=O)O)ccc2c(-c3ccccc3)cc(=O)oc12 (configuration not stated),7%
O=C(O)CSCC(=O)Nc1cc(C(F)(F)F)ccc1Cl,1%
CC(C)C[C@@H](CC(=O)N[C@@H](CCC(=O)O)CC(=O)O)NC(=O)[C@@H]1CNCC[C@H]1NC(=O)C[C@@H](NC(=O)C[C@H](CO)NC(=O)[C@@H]1CNCC[C@H]1N)C(C)C,-3%

# Returning to the listing, starting six compounds before the break.
SMILES,VDR inh
O=C(c1ccco1)N1CCN(C(=O)C2CC(=O)N(c3ccc(Cl)cc3)C2)CC1 (configuration not stated),-5%
COc1ccc(CC(=O)NNC(=O)c2cccs2)cc1OC,11%
CC(NC(=O)c1ccc(Cn2cc([N+](=O)[O-])cn2)o1)c1ccccc1 (configuration not stated),14%
O=C(/C=C/c1cccs1)NC(=S)Nc1ccc(S(=O)(=O)Nc2ccccc2C(F)(F)F)cc1,-6%
Cc1ccc(NC(=O)Nc2ccc3c(c2)OCO3)c(OC(F)F)c1,-9%
Cc1ccccc1OCC(=O)NC(=S)Nc1ccc(Br)c(C)n1,-6%
O=C(COc1ccc(F)cc1Br)NCC1(N2CCOCC2)CCCCC1,21%
CCc1ccc(/C=C(\C)C(=O)c2c(C)cc(C)[nH]c2=O)cc1,8%
CC(Sc1nnnn1C1CC1)C(=O)N1c2ccccc2NC(=O)C1(C)C (configuration not stated),2%
CN1CCC(C(=O)N2CCCC(C(=O)c3ccc4c5c(cccc35)CC4)C2)CC1 (configuration not stated),29%
CCOC(=O)c1cc(NC(=O)N(CC)C2CCCCC2)c(C)nc1C,18%
O=C(c1ccco1)N1CCC2(CCCN(Cc3ccccc3)C2)CC1,-23%
C=CCn1c(=O)c2ccccc2n2c(SCC(=O)NCCc3ccccc3)nnc12,15%
CC(=O)c1cc(-c2ccccc2)n(CCC(=O)NC(C)c2ccccc2)c1C (configuration not stated),19%
Cc1ccc(C(=O)NCCCCNC(=O)c2ccc(C)o2)o1,3%
Cc1cccc(N2CCN(C(=O)NC3CCCCC3)CC2)c1C,-11%
Cc1cc(OCC(=O)NCCCN2CCOCC2)c2c(C)c(C)c(=O)oc2c1,-5%
CCOC(=O)C1CCCN(S(=O)(=O)c2cc(-c3cc(C)no3)ccc2C)C1 (configuration not stated),4%
CC1Cn2c(nnc2-c2ccc(F)cc2)S1 (configuration not stated),10%
Cc1occc1-c1nnc(SCC(=O)N2CCN(c3ccccc3)CC2)n1C,-2%
COc1ccc(C(=O)CC(=O)C(=O)Nc2c(C)cccc2C)cc1,-15%
Cc1cccc(NC(=O)CN(C)S(=O)(=O)c2ccc(Br)cc2)n1,8%
CC(=O)Nc1ccccc1Nc1nc(NCCO)nc(N2CCCC2)n1,-5%
COCCNC(=O)C(c1ccc(F)cc1)N(C(=O)CCC(=O)Nc1nccs1)c1cccc(C)c1 (configuration not stated),13%
COc1ccc(OC)c(S(=O)(=O)Nc2cc3c4c(c2)CCN4C(=O)CC3)c1,0%
COc1ccccc1CN1CCN(C(=O)c2ccco2)CC1,3%
Cn1c(=O)c2[nH]c(CCCC(=O)O)nc2n(Cc2ccccc2)c1=S,-5%
O=S(=O)(c1ccc2c(c1)OCCO2)N(Cc1ccc(F)cc1)Cc1nnc(-c2cccs2)o1,7%
CN(CC(=O)Nc1ccc(Cl)c(C(F)(F)F)c1)C(=O)c1cccs1,-5%
C(=NOCCc1ccccc1)c1ccncc1,-5%
Cc1ccc(NC(=O)C2CCN(S(=O)(=O)c3cnc[nH]3)CC2)nc1,3%

# Some of the entries so far, bar-delimited:
SMILES | VDR inh
Cc1occc1-c1nnc(SCC(=O)N2CCN(c3ccccc3)CC2)n1C | -2%
COc1ccc(C(=O)CC(=O)C(=O)Nc2c(C)cccc2C)cc1 | -15%

# Additional entries follow:
SMILES,VDR inh
CCC(Cc1ccccc1)NCc1c(C(=O)O)c(C)n(Cc2ccccc2)c1C (configuration not stated),-9%
COc1cc2c(cc1OC)C(c1ccc(Cl)cc1)N(c1ccc(C)c(F)c1)C(=O)C2 (configuration not stated),4%
CC(C)c1nc2ccccc2n1CCC(=O)O,-23%
CN(C)c1ccc(/C=N/N(CCO)C2=NS(=O)(=O)c3ccccc32)cc1,-12%
COc1ccc(/C=C/C(=O)NCCCNC(=O)/C=C/c2ccc(OC)c(OC)c2)cc1OC,-2%
Cc1nn(-c2ccccc2)c2c1cc1c(=O)n(C)c(=O)nc-1n2-c1cccc(Cl)c1,-11%
COc1ccc(/C=C/C(=O)OCC(=O)N2CC(=O)Nc3ccccc32)cc1S(=O)(=O)N1CCOCC1,12%
CCc1ccccc1NC(=O)CSc1nc2ccccc2nc1Cc1cccc(OC)c1,3%
Cc1cc(C(=O)C(=O)O)c(C)n1-c1ccc(Cl)cc1,1%
Cc1ccc(C(=O)NCC(=O)NCC(c2ccco2)N2CCCCC2)cc1C (configuration not stated),-15%
Cc1ccc(-c2nnn3c2nc(NC2CCC(C)CC2)c2ccccc23)cc1 (configuration not stated),7%
O=C(Nc1ccc(Oc2ccc(NC(=O)c3ccco3)c(NC(=O)c3ccco3)c2)cc1)c1ccco1,8%
Cc1ccccc1C(=O)c1c[nH]c(C(=O)NCc2ccco2)c1,1%
COc1ccc(-n2nnc3c(=O)n(CC(=O)Nc4cc(C)on4)cnc32)cc1OC,-4%
COc1cc(OC)cc(C(=O)O/N=C(\N)c2cccc(C)c2)c1,-1%
Cc1ccc(-c2nn(-c3ccc(F)cc3F)c3c2cnc2ccc(F)cc23)cc1,11%
O=C(CCn1c(=O)[nH]c2ccccc2c1=O)NCCCN1CCN(c2cccc(Cl)c2)CC1,-5%
Cc1oc2c(CN3CCC(C)CC3)c(O)ccc2c(=O)c1-c1ccccc1,-2%
Cn1c(=N)n(CC(=O)c2ccc(Cl)c(Cl)c2)c2ccccc21,-5%
FC(F)c1nc2ccccc2[nH]1,15%
NS(=O)(=O)c1ccc(-c2cccc(/C=C3\SC(=O)NC3=O)c2)cc1,?
CC/C(=N/Nc1ccccc1)c1cnnc(SC)n1,-13%
CCOC(=O)Cc1csc(NC(=O)CSc2nc(N)c3c(C)c(C)sc3n2)n1,-7%
Cc1cc(C)cc(C(=O)OCC(=O)NC2CCCC2)c1,13%
COc1ccc(CN2CCN(C(=O)c3ccc(S(=O)(=O)N4CCCCCC4)cc3)CC2)cc1F,-5%
# Next entries:
SMILES,VDR inh
Cc1nn(C(=O)Cn2ccc([N+](=O)[O-])n2)c(C)c1Cl,-26%
CC1(c2ccc3c(c2)OCO3)NC(=O)N(CC(=O)Nc2ccccc2)C1=O (configuration not stated),-4%
CCN(C(=O)CSc1nc2cc(C(=O)O)ccc2c(=O)n1Cc1ccccc1)c1ccccc1,-4%
COc1cc(OC)c(OC)cc1/C=C/C(=O)c1ccc(NS(=O)(=O)c2ccc(C)cc2)cc1,-7%
CC(C)(C)OC(=O)N1CCCN(C(=O)Nc2ccc(C(F)(F)F)cc2)CC1,6%
COc1ccc(Cc2nnc3sc(SCC(=O)Nc4ccccc4)nn3c2=O)cc1OC,-16%
CCOC(=O)[C@H]1[C@H]2COc3ccc(OC)cc3[C@@H]2N2C(=O)c3cc(C)ccc3NC(=O)[C@@]12C,-7%
COc1ccc(S(=O)(=O)N2CCCCC2)cc1NC(=O)CCc1cc(OC)c(OC)c(OC)c1,-13%
O=C(Nc1cccc(Br)c1)c1ccn[nH]1,6%
COC(=O)c1ccc(NC(=O)CSc2nc(=O)n(Cc3ccco3)c3c2CCC3)cc1,-1%
COc1cccc(C(c2nnnn2CS(=O)(=O)c2ccc(C)cc2)N2CCN(C)CC2)c1OC (configuration not stated),-5%
Clc1cccc(-c2nnc(-c3ccccc3)o2)c1,-6%
Cc1nc2c(=O)[nH]c(=S)n(C)c2nc1C,50µM*
Cn1c(NCCN2CCOCC2)nc2c1c(=O)n(Cc1cccc(Cl)c1)c(=O)n2C,0%
CCOC(=O)C1(Cc2cccc(Cl)c2)CCCN(C2CCN(C(C)=O)CC2)C1 (configuration not stated),-7%
C/C(=N\Nc1cc(C)nc(NCc2ccccc2)n1)c1ccc([N+](=O)[O-])cc1,-15%
O=C(NC1CCCCCCC1)c1cccnc1,9%
COc1ccc(C(=O)NCc2nnc(SCC(=O)N3CCCC3)o2)cc1,6%
